# Screening data as filed in PubChem.
# CBX7 AlphaScr: CBX7 inhibition, primary AlphaScreen. O95931. AlphaScreen His6-CBX7 / biotin-H3K27me3 peptide binding; stronger effect = lower value. normalised signal (fraction of DMSO) (no concentration beside the values). 66,000 compounds, 1.1% hits; in the data active = normalised signal below about 0.5;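 also: 100 nL library stock added to about 20 µL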
# Target sequence (O95931 whole entry, looked up): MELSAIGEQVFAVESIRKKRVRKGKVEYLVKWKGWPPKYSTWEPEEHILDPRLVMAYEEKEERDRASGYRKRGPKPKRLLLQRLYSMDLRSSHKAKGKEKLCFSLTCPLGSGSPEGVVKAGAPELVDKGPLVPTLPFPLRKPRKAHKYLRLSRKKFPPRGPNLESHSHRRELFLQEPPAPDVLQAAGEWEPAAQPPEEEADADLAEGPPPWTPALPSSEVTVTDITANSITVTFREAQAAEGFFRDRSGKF
# CBX7 AlphaScr z-score: recorded beside CBX7 AlphaScr, whose call it bears; z-score; measured here: z-score of CBX7 signal; some inactives read as strong as hits; reference of the scale not given here;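 same signal on another scale; lower means less binding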
# * marks the source's active call; other numbers are inactive results.
SMILES	CBX7 AlphaScr	CBX7 AlphaScr z-score
Cc1ccc(-c2nc(Nc3ccccc3)c3ccccc3n2)cc1	1.1	1.6
Cc1ccc(-n2cc(-c3ccccc3)c3c(NCc4cccs4)ncnc32)cc1Cl	1.1	2.3
O=C1CN(C(=O)COc2ccc(Cl)cc2)C(c2ccccc2)c2cc(Cl)ccc2N1 (stereo not drawn)	0.63	-3.5
COc1cc(Nc2cc(C)nc3ncnn23)c(C(=O)O)cc1OC	1	1
Cc1ccc(-n2ncc3c(NCCO)ncnc32)c(C)c1	0.95	-1.3
COc1ccc(-c2nc(Nc3ccc(C)cc3)c3ccccc3n2)cc1OC	1.1	1.9
Cn1c2ccccc2c2c(C(=O)N3CCN(c4cccc(Cl)c4)CC3)cn(C3CCCC3)c(=O)c21	0.78	-6.2
CCOc1ccccc1N(C)C(=O)c1cn(CC)c(=O)c2cc(OC)c(OC)cc12	0.87	-1.1

# New compounds follow:
SMILES	CBX7 AlphaScr	CBX7 AlphaScr z-score
COc1cc(C(=O)N[C@H]2COC(C)(C)O[C@H]2c2ccccc2)nc2ccccc12	1.1	0.51
Cc1nc2ccccc2n1CCOc1ccccc1	1	-0.067
Cc1ccc(-n2nc(C)c3c(C)c(CCC(=O)NCCc4ccccc4)c(C)nc32)cc1	0.9	-0.78
O=C(CN1CCN(Cc2ccccc2Cl)C1=O)NC1CCCCCCC1	0.84	-2.1
Cc1cc(N2CCCCC2)nc2ccc(NC(=O)CCC(=O)NCCN(C)Cc3ccccc3)cc12	0.94	-0.6
CCc1ccc(NC(=O)c2cn(C3CCCC3)c(=O)c3c2c2ccccc2n3C)cc1	0.92	-2.2
O=C(NC1CCCCCCC1)C1c2cccn2CC(=O)N1C1CCCc2ccccc21 (stereo not drawn)	0.99	-0.036
CCc1ccccc1NS(=O)(=O)c1ccc2[nH]cc(C(=O)N3CCCCC3)c(=O)c2c1	0.93	-0.29

# More entries:
SMILES	CBX7 AlphaScr	CBX7 AlphaScr z-score
CC1=Nc2cc(C(=O)NCCCOC(C)C)ccc2Sc2ccccc21	0.94	-0.93
Cc1nc2cc(C(=O)NCC3CCCO3)ccc2n1-c1ccc(F)cc1F (stereo not drawn)	0.98	-0.64
Cc1ccc(NC(=O)CN(C)S(=O)(=O)c2cnc[nH]2)c(C)c1	1	0.31
CC(C)c1ccc(OCC(=O)N(Cc2ccc(Cl)cc2)C2CCS(=O)(=O)C2)cc1 (stereo not drawn)	0.93	-0.074
COc1ccc(NC(=O)C2(S(=O)(=O)c3ccc(Cl)cc3)CC2)cc1	1	0.33
CC(=O)NCCc1nc2ccccc2n1Cc1cccc(C)c1	1.1	2.4
NC(=O)c1oc2ccccc2c1NC(=O)c1ccc(Oc2ccccc2)cc1	0.94	-0.26
CN(C(=O)c1ccc(-c2nn(C)c(=O)c3ccccc23)cc1)C1CCCCC1	1.2	1.6

# Structural class: the compounds so far containing an NH in an aromatic ring
SMILES	CBX7 AlphaScr	CBX7 AlphaScr z-score
CCc1ccccc1NS(=O)(=O)c1ccc2[nH]cc(C(=O)N3CCCCC3)c(=O)c2c1	0.93	-0.29
Cc1ccc(NC(=O)CN(C)S(=O)(=O)c2cnc[nH]2)c(C)c1	1	0.31

# Record cards (already shown). Order of screens: CBX7 AlphaScr	CBX7 AlphaScr z-score
# `CC(C)c1ccc(OCC(=O)N(Cc2ccc(Cl)cc2)C2CCS(=O)(=O)C2)cc1` (stereo not drawn) across the screens: 0.93	-0.074
# `COc1ccc(NC(=O)C2(S(=O)(=O)c3ccc(Cl)cc3)CC2)cc1` across the screens: 1	0.33
# `Cc1nc2cc(C(=O)NCC3CCCO3)ccc2n1-c1ccc(F)cc1F` (stereo not drawn) across the screens: 0.98	-0.64
# `CC1=Nc2cc(C(=O)NCCCOC(C)C)ccc2Sc2ccccc21` across the screens: 0.94	-0.93
# `CC(=O)NCCc1nc2ccccc2n1Cc1cccc(C)c1` across the screens: 1.1	2.4

# More results follow.
SMILES	CBX7 AlphaScr	CBX7 AlphaScr z-score
COc1ccccc1CNC(=O)c1cn(CC(C)C)c(=O)c2cc(OC)c(OC)cc12	1	0.91
Cc1ccc2c(c1)N(CCCC(=O)N(C)Cc1ccccc1)C(=O)CO2	1.3	0.63
CCCCCCOc1ccc(N2C(=O)CC(N3CCN(C/C=C/c4ccccc4)CC3)C2=O)cc1 (stereo not drawn)	1.2	1.9
Cc1ccc(Cn2c(=O)c3cccnc3n(Cc3cccc(F)c3)c2=O)cc1	1	0.18
O=C(c1ccc2c(c1)C(=O)N(c1ccccn1)C2=O)N1CCCc2ccccc21	1	0.62
Cc1cccc2c1-c1sc(C(=O)NC3CCCCC3C)cc1CO2 (stereo not drawn)	1.2	5.4
O=C(CN1CCN(Cc2ccc(F)cc2)C1=O)NCc1ccc(F)cc1	0.98	-0.49
COc1ccc(-n2nnc3c(=O)n(Cc4cccc(C)c4)cnc32)cc1	1.1	1.4

# Further compounds
SMILES	CBX7 AlphaScr	CBX7 AlphaScr z-score
CCOC(=O)c1[nH]c(C)c(C(=O)NCc2ccc(C)cc2)c1C	1	0.78
O=C(NCc1ccccn1)c1cccc(NC2=NC3CS(=O)(=O)CC3S2)c1 (stereo not drawn)	0.99	-0.47
O=c1oc2ccc(Br)cc2cc1-c1nc2ccccc2s1	1.1	1.3
Cc1c(Cl)cccc1N1C(=O)C2C3C=CC(C3=C3CCCCC3)C2C1=O (stereo not drawn)	1.1	1.6
CCCN1Cc2cccc(C(=O)Nc3cccc(F)c3)c2C1=O	1	0.022
Cn1c(=O)c2nc(-c3cccc(Cl)c3)oc2c2ccccc21	1	0.38
O=C(NC1CCCCC1)c1c[nH]c2ccc(S(=O)(=O)Nc3ccccc3F)cc2c1=O	0.97	-0.3
COc1ccc(Nc2cc(C(=O)NC3CCCC(C)C3C)c3ccccc3n2)cc1 (stereo not drawn)	1.2	2

# Following part
SMILES	CBX7 AlphaScr	CBX7 AlphaScr z-score
CCC(C)N(CCNC(=O)CC1Oc2ccc(C)cc2NC1=O)C1CCCCC1 (stereo not drawn)	1	1.6
CCc1ccc(NC(=O)c2cc(-c3ccc(F)cc3)on2)cc1	1	1.3
COc1ccc(Nc2cc(C(=O)NCCN3CCCC3)c3ccccc3n2)cc1OC	0.66	-4.1
Cc1nc2nc(SCC(=O)NC3CCCCC3C)nn2c(C)c1Cc1ccccc1 (stereo not drawn)	1.2	1.6
O=C(CCN1N=C(c2ccccc2)CCC1=O)NC1CCCCCC1	0.96	-0.69
Cc1cc(Nc2ccc3c(c2)OCCO3)c2ccc(Cl)cc2n1	0.76	-0.28
CCCCC(=O)Nc1c2c(nn1-c1ccc(Cl)cc1)CSC2	1.1	3.4
O=C(CSc1nnc(Cc2cc(=O)[nH]c(=O)[nH]2)n1-c1ccc(Cl)cc1)c1ccccc1	0.91	-1.4

# Going on with the list.
SMILES	CBX7 AlphaScr	CBX7 AlphaScr z-score
O=C(NCCc1nc2ccccc2n1Cc1ccccc1F)c1ccccc1	1	0.082
Cc1cccc(Nc2nc(-c3ccc(C(C)C)cc3)cs2)n1	0.83	-2
O=C(c1ccc(CNc2c(N3CCOCC3)c(=O)c2=O)cc1)N1CC=C(c2ccccc2)CC1	0.97	-0.18
CCOc1ccc(-n2cc(C(=O)Nc3ccc(F)c(Cl)c3)c3cc(OC)c(OC)cc3c2=O)cc1	1	0.54
O=C(NCc1ccc2c(c1)OCO2)c1cc(Sc2ccc(Cl)cc2)nc2ccccc12	1	0.0032
CCCCOCC(O)CN1CCN(C(C)=O)CC1 (stereo not drawn)	1.1	0.53
COc1ccc(CCN(C)CCCN2CC(c3ccccc3)CC2=O)cc1OC (stereo not drawn)	1	0.38
COc1ccc(-c2nc(SCC(=O)NCC3CCCO3)c(-c3ccc(F)cc3)[nH]2)cc1OC (stereo not drawn)	0.99	-0.2

# The results go on.
SMILES	CBX7 AlphaScr	CBX7 AlphaScr z-score
Cc1cccc(C)c1NC(=O)CC1C(=O)N(Cc2ccccc2)C(C)c2nc3ccccc3n21 (stereo not drawn)	1	0.99
CC(=O)N1CCc2cc(S(=O)(=O)NC(Cc3ccccc3)C(=O)NCc3ccccc3)ccc21 (stereo not drawn)	1	0.85
O=C(NC1CCN(Cc2ccccc2)CC1)c1cnn(-c2ccccc2)c1-n1cccc1	1	0.19
COc1ccc(CCN2C(=O)N(c3ccc(F)cc3)C(=O)C2CC(=O)Nc2ccccc2)cc1OC (stereo not drawn)	1.1	0.15
Cc1cc(NC(=O)c2c(-c3c(Cl)cccc3Cl)noc2C)no1	0.98	-0.36
Cc1ccc(OCC(=O)Nc2c(C(=O)c3ccc(F)cc3)oc3ccccc23)cc1	1	0.17
CCOc1cc2c(cc1OC)C(c1ccccc1F)NCC2 (stereo not drawn)	1.1	0.99
Cc1cccc(N2CCN(c3nc4ccccc4nc3C(F)(F)F)CC2)c1C	1	1.4

# More structures.
SMILES	CBX7 AlphaScr	CBX7 AlphaScr z-score
CC1=Nc2cc(C(=O)N3CCCC3)ccc2Sc2ccccc21	1.1	1.3
Cc1cc(Br)ccc1NC(=O)Cc1c(C(=O)O)[nH]c2ccc(Cl)cc12	0.98	-0.18
Cn1nc(-c2ccccc2F)c2cc(C(=O)Nc3ccccc3Cl)sc21	1.1	0.4
CCN(C(=O)CCc1nc(-c2ccc(C)cc2)no1)c1cccc(C)c1	1.1	1.9
CC(=O)NC(c1ccccc1)c1nc2ccccc2[nH]1 (stereo not drawn)	0.98	-0.32
O=C(Cc1ccccc1)Nc1nnc(-c2ccc3c(c2)OCO3)s1	0.95	-2.3
CCCCCCc1cc2cc(-c3nnc(-c4ccccc4)o3)c(=O)oc2cc1O	0.87	-1.5
COc1ccc(-c2cc(C)nc3c(-c4ccc(Cl)cc4)c(C)nn23)cc1	1.1	2.3

# New compounds follow
SMILES	CBX7 AlphaScr	CBX7 AlphaScr z-score
NC(=O)C1CCN(C(=O)c2cccc(C#Cc3ccccc3)c2)CC1	0.91	-1.5
COc1ccccc1-c1nc(-c2ccc(Br)cc2)c(CC(=O)O)s1	0.87	-0.89
Cc1ccc(C(=O)c2oc3ccccc3c2NC(=O)c2ccc(OC(C)C)cc2)cc1	1.6	2.4
Cc1ccc(NC(=O)c2cnc(C(=O)NC3CCCCC3)c3ccccc23)cc1Cl	1.1	0.2
CCC(C)NC(=O)CNC(=O)Cn1cnc2sc(C)c(C)c2c1=O (stereo not drawn)	0.99	-0.45
COc1ccc(-c2nn(C)c3sc(C(=O)NC(C)C)cc23)cc1OC	1	1
COCCCNc1nc(Cc2ccccc2)nc2sc3c(c12)CCCC3	1.1	2.7
CCCCNC(=O)CSc1nc2nc(C)c(Cc3ccccc3C)c(C)n2n1	1.1	0.88

# (continued)
SMILES	CBX7 AlphaScr	CBX7 AlphaScr z-score
CCOC(=O)c1cc(-c2ccccc2)n(-c2cccc(C(=O)Nc3cccc(F)c3)c2)c1C	0.73	-8.1
NC(=O)c1oc2ccccc2c1NC(=O)c1ccc(S(=O)(=O)N2CCCCCC2)cc1	0.94	-0.99
O=C(NCCCN1CCOCC1)c1nn2c(C(F)(F)F)cc(-c3cccs3)nc2c1Cl	0.98	-0.24
CCCN(CCC)S(=O)(=O)c1ccc(C(=O)Nc2c3c(nn2-c2ccccc2C)CSC3)cc1	1	0.98
COC(=O)c1cnc(N2CCN(c3ccc(F)cc3)CC2)c2ccccc12	1.2	5
Cc1cc(C)nc(NC(=O)c2c(-c3ccccc3)noc2C)c1	0.95	-0.72
O=C(NCc1ccncc1)c1nnc(Cc2ccc(F)cc2)o1	0.86	-1.6
Cc1oc(-c2ccc(Cl)cc2)nc1Cn1c(SCc2ccccc2F)nc2ccncc21	1	1

# Carrying on:
SMILES	CBX7 AlphaScr	CBX7 AlphaScr z-score
O=C(Nc1cccc(C(F)(F)F)c1)c1cc2n(n1)C(C(F)(F)F)CC(c1ccc3c(c1)OCO3)N2 (stereo not drawn)	1.1	0.084
CCC(=O)Nc1cccc(Oc2nc(C)cc(C)c2C#N)c1	1	1.5
CCCCN(CC)C(=O)c1cn(CC)c(=O)c2cc(OC)c(OC)cc12	1.2	1.6
COc1ccc(-c2c(C)nn3c(N4CCC(C(=O)NC5CC5)CC4)cc(C)nc23)cc1OC	1	0.94
COc1ccc(CN2C(=O)N(c3ccc(F)cc3)C(=O)C2CC(=O)Nc2ccc(Cl)cc2)cc1 (stereo not drawn)	0.99	-0.21
COc1ccccc1-c1cc(C(=O)Nc2c(C)nn(Cc3ccccc3C)c2C)no1	1.1	0.87
CN1CC(=O)Nc2cc(C(=O)NCc3cccs3)ccc21	1.1	0.1
O=C(CN1CCCCC1)Nc1c2c(nc3ccccc13)N(c1cccc(Cl)c1)CC2	1	-0.13

# Next entries follow.
SMILES	CBX7 AlphaScr	CBX7 AlphaScr z-score
O=C(COc1ccc(Cl)cc1)Nc1ncc(Cc2ccc(F)cc2)s1	1.2	0.98
COc1cc(OC)c(NC(=O)CCn2ccnc2C)cc1Cl	1	0.86
O=C1CC(c2nc3ccccc3n2Cc2ccc(F)cc2)CN1c1ccccc1 (stereo not drawn)	0.92	-1.1
CCN1CCN(c2oc(COc3cccc(Cl)c3)nc2C#N)CC1	0.8	-1.3
CCCCNC(=O)c1c[nH]c2ccc(S(=O)(=O)Nc3cccc(C(F)(F)F)c3)cc2c1=O	0.91	-1.1
Cn1c(C(=O)N2CCCC(C(=O)NCCc3ccccc3)C2)cc2sccc21 (stereo not drawn)	0.89	-3.1
COc1ccc(C(=O)Nc2c3c(nn2-c2ccccc2)CSC3)cc1	0.94	-1.4
COc1ccc(N(C)S(=O)(=O)c2ccc3c(c2)CCN3C(=O)C2CC2)c(OC)c1	0.97	-0.92

# The results go on.
SMILES	CBX7 AlphaScr	CBX7 AlphaScr z-score
O=C(CCc1nc(-c2ccccc2F)no1)N1CCCC1	1	1.7
O=C(NCCCN1CCCC1)C1CCCN(c2nnc(-n3cccc3)s2)C1 (stereo not drawn)	0.95	-1.1
COc1ccccc1NC(=O)Cn1cnc2sc(C(=O)Nc3ccc(F)cc3F)c(C)c2c1=O	1	0.032
COc1ccc(CC(=O)Nc2ccc3nc(N4CCC(C)CC4)cc(C)c3c2)cc1	0.97	-0.51
COc1cccc(C2=NOC(C(=O)Nc3ccc(OC(F)(F)F)cc3)C2)c1 (stereo not drawn)	1.1	1.4
Clc1ccc(C2NCCc3cc4c(cc32)OCCO4)cc1 (stereo not drawn)	1	0.28
CC(=O)N1CCc2cc(S(=O)(=O)N3CCN(Cc4ccccc4)CC3)ccc21	1.1	2.1

# Not all compounds are listed; count on the stated rates, not on these rows.
